# Bioassay records deposited in PubChem by National Center for Advancing Translational Sciences (NCATS).
# PINK1 expr mod = A Quantitative High throughput Screen to Identify Chemical Modulators of PINK1 Expression; PINK1 immunofluorescence, high-content cytometry, 24 h; Potency, µM (top dose mostly 76.6 µM), without a hit: top-dose activation (PINK1 increase), most hits filed as activators; hit rate 0.2% among 410,000; AID 624263, 2012; active = well fitted activation curve with a large enough effect; inconclusive = small, poorly fitted or top-dose-only effect; inactive = flat fitted curve, though single readings scatter; cell line not stated here;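 also: potency is read from the fitted curve at half-maximal effect; % of control where 0% means no effect; nearly all actives have a fitted effect of over 65% in size; a mitochondrial uncoupler was the plate control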
#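 PINK1 protein level read as immunofluorescence by microplate cytometer in a fixed, stained stable cell line after 24 h exposure to five compound concentrations, with CCCP as control.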
# TRPML1 ag = qHTS for Agonists of the Human Mucolipin Transient Receptor Potential 1 (TRPML1) | hit rate 0.12% among 410,000 | activation, % (no concentration beside the values) | Mucolipin-1 (Homo sapiens), Q9GZU1 | TRPML1-expressing cells, Ca2+ dye fluorescence, FDSS; host cell line not named in the record; reference of the full effect not given here; in the data active = activation above about 50%; inconclusive = about 30% to 50%; inactive = below about 30%; also: 0% is about no effect; the text of the record puts the active cut at 80%
# Target sequence (Q9GZU1 whole entry, looked up): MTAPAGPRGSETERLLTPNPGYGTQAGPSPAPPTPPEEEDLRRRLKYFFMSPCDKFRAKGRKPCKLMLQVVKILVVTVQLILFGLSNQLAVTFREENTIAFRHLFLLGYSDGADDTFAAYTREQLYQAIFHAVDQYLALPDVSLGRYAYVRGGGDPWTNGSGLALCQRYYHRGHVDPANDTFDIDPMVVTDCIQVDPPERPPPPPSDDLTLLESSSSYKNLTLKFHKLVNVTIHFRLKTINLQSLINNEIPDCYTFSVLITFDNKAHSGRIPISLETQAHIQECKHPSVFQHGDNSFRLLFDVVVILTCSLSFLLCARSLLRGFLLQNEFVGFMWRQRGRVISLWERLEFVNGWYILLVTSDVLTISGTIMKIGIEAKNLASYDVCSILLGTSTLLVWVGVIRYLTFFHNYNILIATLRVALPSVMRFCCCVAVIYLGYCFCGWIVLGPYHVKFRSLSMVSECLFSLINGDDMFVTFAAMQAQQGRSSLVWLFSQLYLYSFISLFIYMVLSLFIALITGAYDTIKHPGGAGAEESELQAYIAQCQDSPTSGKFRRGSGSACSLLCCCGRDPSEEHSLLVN
#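 Tetracycline-induced TRPML1-DL cells are seeded and incubated overnight before loading with a no-wash Ca2+ dye and quencher. Agonist activity is taken from the 110 s fluorescence read following compound pin-transfer on an FDSS, before EC80 54-4 challenge.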
# Numbers without * were called inactive; ? = inconclusive; . = no result given. An excerpt, so the mix of outcomes need not match the whole.
SMILES,PINK1 expr mod,TRPML1 ag
C[C@@H]1C[C@@H](CC(=O)NCC2Cc3cccc(-c4ccncc4)c3O2)NC(=S)N1 (stereo not given in full),2.7%,.
COc1ncc2nc(-c3cccs3)c(=O)n(Cc3cccs3)c2n1,0.6%,.
O=C(c1ccncc1)N1CCC2(CCN(Cc3nccs3)CC2)CC1,0.3%,.
COCCn1c(=O)c(CCc2ccccc2)nc2cnc(Oc3cccc(Cl)c3)nc21,1.8%,.
c1ccc(Nc2ncnc3ccc(-c4cccnc4)cc23)cc1,-0.2%,.
COCCNc1nc(-c2ccccc2C(F)(F)F)nc2ccccc12,-0.3%,.
COc1ccc(-c2coc3cc(OC(C)=O)cc(OC(C)=O)c3c2=O)cc1,0.7%,.
COc1ccc(O)c(CN2CCC3(CC2)c2ccccc2[C@@H](NC(=O)c2cccc(F)c2)[C@@H]3OC)c1,0.2%,.
COc1ncc2nc(C)c(=O)n(C)c2n1,-0.1%,.
C[N+]1(CC(=O)c2ccc(Cl)c(Cl)c2)CCOCC1,.,-0.4
O=Cc1cc2ccccc2cc1O,.,-0.4
CCCN(CCC)c1ccc(/C=C/c2ccnc3ccccc23)cc1,.,?
CC(=O)C[C@H]1c2cc(F)cc(F)c2S(=O)(=O)N1C1CCN(Cc2ccccc2)CC1,.,-0.1
CN(C)c1ccc(/C=C/c2c3c(nc4ccccc24)CCCC3)cc1,.,6.3
Brc1cc(Br)c[n+](CCc2ccccc2)c1,.,0.0
COc1cc(OC)c(/C=C/c2ccc3ccccc3n2)c(OC)c1,.,5.1
Cc1ccnc2cc(Cl)cc(Cl)c12,.,-0.2
O=Cc1ccc(N2CCOCC2)cc1,.,-0.1
Cc1cc(C)c2nccc(/C=C/c3ccc(N(C)C)cc3)c2c1,.,15
C=C[C@@H]1c2cc(C)ccc2N(S(=O)(=O)c2ccc(C)cc2)[C@H](c2ccc(C(=O)OC)cc2)C1(C#N)C#N,.,-0.6
O=C(O)C#CC(=O)O,.,-0.4
CN(C)c1ccc(/C=C/c2ccnc3c(O)ccc(O)c23)cc1,.,-0.4
C=CC[C@H](c1ccc(F)cc1)N(CC(C)C)S(=O)(=O)C=C,.,21
CN(C)c1ccc(/C=C/C=C/c2ccnc3ccccc23)cc1,.,53*
O=C(C[n+]1cccc(Br)c1)c1ccc(Br)cc1,.,-0.2

# Another view of some results above:
> COc1cc(OC)c(/C=C/c2ccc3ccccc3n2)c(OC)c1
  PINK1 expr mod: . | TRPML1 ag: 5.1
> Cc1ccnc2cc(Cl)cc(Cl)c12
  PINK1 expr mod: . | TRPML1 ag: -0.2

# Ordered by length of the SMILES (ascending): part of the list above
SMILES,PINK1 expr mod,TRPML1 ag
C[N+]1(CC(=O)c2ccc(Cl)c(Cl)c2)CCOCC1,.,-0.4
O=C(c1ccncc1)N1CCC2(CCN(Cc3nccs3)CC2)CC1,0.3%,.
COc1ccc(-c2coc3cc(OC(C)=O)cc(OC(C)=O)c3c2=O)cc1,0.7%,.
C=C[C@@H]1c2cc(C)ccc2N(S(=O)(=O)c2ccc(C)cc2)[C@H](c2ccc(C(=O)OC)cc2)C1(C#N)C#N,.,-0.6

# Among those listed so far, 2 contain a carbonyl joined to an NH by a bond outside any ring.
SMILES,PINK1 expr mod,TRPML1 ag
C[C@@H]1C[C@@H](CC(=O)NCC2Cc3cccc(-c4ccncc4)c3O2)NC(=S)N1 (stereo not given in full),2.7%,.
COc1ccc(O)c(CN2CCC3(CC2)c2ccccc2[C@@H](NC(=O)c2cccc(F)c2)[C@@H]3OC)c1,0.2%,.

# Continuation:
SMILES,PINK1 expr mod,TRPML1 ag
C[C@@H]1[C@H](c2ccccc2)OCCS(=O)(=O)N1Cc1ccc(F)cc1,.,-0.2
CC(C)(C)CC(C)(C)N=C1Nc2ccc(Cl)cc2N[C@]12C[C@H]1CCCC(=O)N3CC[C@@H](C2)[C@@H]13,.,-0.4
COC(=O)C[C@H]1c2cc(F)ccc2S(=O)(=O)N1C1CC1,.,-0.9
CCCCCCCCCCCC[n+]1ccc(/C=C/c2c[nH]c3ccccc23)c2ccccc21,.,7.1
COc1ccc(CCC(=O)O)cc1,.,-0.7
C[N+]1(CC(=O)c2ccc(I)cc2)CCCc2ccccc21 (stereo not given),.,-0.6
Cc1cc(/C=C/c2ccnc3ccccc23)ccc1N(C)C,.,?
Cc1cc2ccccc2c[n+]1C1CCCCC1,.,0.1
COc1cc(N)c(N)cc1OC,.,0.0
CCCCCCC[n+]1ccc(/C=C/c2c(C)[nH]c3ccccc23)c2ccccc21,.,2.8
Cc1ccccc1N=C1Nc2ccc(Cl)cc2N[C@]12C[C@H]1CCCC(=O)N3CC[C@@H](C2)[C@@H]13,.,-1.3
O=C(C[n+]1cccc2cccc(O)c21)c1ccccc1,.,3.1
Cc1cnc2ccccc2c1/C=C/c1ccc(N(C)C)cc1,.,-0.5
O=C1[C@H](Cc2ccccc2)NC/C=C\C[C@@H](c2ccco2)N1Cc1ccccc1,.,-0.6
Cc1cc[n+](CC(=O)c2ccc(F)cc2)c2ccccc12,.,-0.6
CCc1cc[n+](CC(=O)c2ccc(F)cc2)cc1C(=O)O,.,-0.4
CCN(CC)CCN(C)c1ccc(/C=C/c2ccnc3ccccc23)cc1,.,12
Cc1ncnc2nc[nH]c12,.,-0.4
COc1ccc2[nH]c(CCc3nc4c(OC)c(OC)ccc4[nH]3)nc2c1OC,.,-0.9
O=C(C[n+]1ccnc2ccccc21)c1ccc(Br)cc1,.,-0.7
Cc1ccc2ncc(C)c(C)c2c1,.,-0.8
Cc1ccc(CN2CCOCCS2(=O)=O)cc1,.,-0.4
O=C(C[N+]1(c2ccccc2)CCOCC1)c1ccccc1,.,-0.8
Cc1cccc(CN2Cc3cccc4c3[C@H](C=CC4)CC2=S)c1,.,-0.7
O=C1c2ccccc2C(=O)c2cc(Cn3cc(-c4cccc(C(F)(F)F)c4)nn3)ccc21,.,-0.8

# Copied from above for reference:
SMILES,PINK1 expr mod,TRPML1 ag
CCN(CC)CCN(C)c1ccc(/C=C/c2ccnc3ccccc23)cc1,.,12
Cc1ncnc2nc[nH]c12,.,-0.4
COc1ccc2[nH]c(CCc3nc4c(OC)c(OC)ccc4[nH]3)nc2c1OC,.,-0.9
O=C(C[n+]1ccnc2ccccc21)c1ccc(Br)cc1,.,-0.7
Cc1ccc2ncc(C)c(C)c2c1,.,-0.8

# (cont.)
SMILES,PINK1 expr mod,TRPML1 ag
C=C1[C@@H](O)CN(Cc2ccc(OC)cc2)S1(=O)=O,.,-0.5
O=C(O[C@H]1[C@H](Cc2ccccc2)NS(=O)(=O)[C@H]2C[C@@H]3C=C[C@]12O3)c1ccccc1Br,.,0.1
C[C@@H]1[C@H](c2ccccc2)OCCS(=O)(=O)N1Cc1ccccc1Br,.,-0.3
O=c1cc(/C=C/c2ccc([N+](=O)[O-])cc2)c2ccccc2[nH]1,.,-0.4
COc1ccc(CN2CC[C@H]3C=CC[C@@H](C(=O)NC4CCCCC4)[C@H]3C2=O)cc1OC,.,-0.7
CC/C(=C/c1ccccc1OC)c1cc(-c2ccccc2)cc2oc3ccccc3c12,.,0.7
O=C1CCC[C@@H]2[C@@H](Cc3ccccc3)[C@@H](Nc3ccccc3)C[C@@H]3CCN1[C@@H]32,.,-0.8
COc1ccc(CN2[C@@H](CC(=O)O)c3ccc(/C=C/C(=O)O)cc3S2(=O)=O)cc1,.,-0.2
Cc1cc(C)c2cccnc2c1O,.,-0.5
C=C[C@@H]1c2cc(C)ccc2N(S(=O)(=O)c2ccc(C)cc2)[C@H](c2ccc(C(C)(F)F)cc2)C1(C#N)C#N,.,51*
Nc1cc(N)cc(N)c1,.,-0.4
CN(CC(=O)O)c1ccc(C=O)cc1,.,-0.2
Cc1cccc2c(C(O)c3c[nH]c4c(C)cccc34)c[nH]c12,.,-0.1
COc1ccc(/C=c2\[nH]c(=O)/c(=C/c3ccc(OC)cc3)[nH]c2=O)cc1,.,-0.2
C[C@H](NC(=O)OC(C)(C)C)[C@@H](O)c1ccco1,.,-0.3
Cc1ccc(CN2[C@H]3CCCC[C@@H]3OCCS2(=O)=O)cc1,.,-1.0
Cc1cccc(/C=C/c2cccs2)n1,.,-0.4
OC(C1=C/C(=C\c2ccncc2)c2ccccc21)c1ccncc1 (stereo not given),.,0.2
CCN(CC)c1ccc(/C=C/c2ccccn2)cc1,.,27
C#CCN(Cc1ccc(OC)cc1)S(=O)(=O)C=C,.,-1.2
Cc1cc2c(cc1C)N[C@]1(C[C@H]3CCC(=O)N4CC[C@@H](C1)[C@@H]34)C(=Nc1ccccc1C)N2,.,-1.0
CC(=O)/C=C/c1ccc2c(c1)S(=O)(=O)N(C1CCCC1)[C@H]2CC(C)=O,.,0.2
CC(O)c1nc2ccccc2[nH]1 (stereo not given),.,0.0
COc1cc2nc(CCc3nc4cc(OC)c(OC)cc4[nH]3)[nH]c2cc1OC,.,0.1
Brc1ccc2c(ccc[n+]2CCc2ccccc2)c1,.,-0.1
# Additional records follow:
SMILES,PINK1 expr mod,TRPML1 ag
Cc1ccc2ccccc2[n+]1CCCCI,.,-0.1
CN(C)c1ccc(/C=C2\C(=O)/C(=C\c3ccc(N(C)C)cc3)c3ccccc32)cc1,.,0.6
O=[N+]([O-])c1ccc2c(c1)C=CC2,.,-0.4
O=C(C[N+]12CN3CN(CN(C3)C1)C2)c1ccc(Br)cc1,.,-0.2
CC(C)(C)CC(C)(C)N=C1Nc2ccc([N+](=O)[O-])cc2N[C@]12C[C@H]1CCCC(=O)N3CC[C@@H](C2)[C@@H]13,.,5.3
Cc1cc[n+](C2CCCCC2)c2ccccc12,.,-0.4
Cc1cnc2ccccc2c1C,.,-0.4
Cc1cc(C)cc(C(=O)C[n+]2cccc(Br)c2)c1,.,-0.8
CCCCN(CCC(=O)O)c1ccc(/C=C/c2ccnc3ccccc23)cc1,.,99*
COC(=O)C1=C(C(=O)OC)[C@]2([C@H]3C/C=C\CN[C@@H](Cc4ccccc4)C(=O)N3Cc3ccccc3)C=C[C@H]1O2,.,0.5
C[N+]1(CC(=O)c2ccccc2)CCc2ccccc2C1 (stereo not given),.,-0.4
CC(C)N(c1ccc(C=O)cc1)C(C)C,.,-1.1
OC(Br)C(O)C(O)N1CCCc2ccccc21 (stereo not given),.,-0.7
CN(C)c1ccc(/C=C/c2cc3ccccc3cn2)cc1,.,-0.5
C[N+]1(CC(=O)c2ccc(Cl)cc2)CCOCC1,.,-0.3
[O-][N+]12CCCc3cccc(c31)CCC2,.,2.9
O=Cc1ccnc2ccccc12,.,0.6
CCCCCCCCCCCCCCCC[n+]1ccc(C)cc1,.,5.6
COc1ccc(CN2[C@@H](CC(=O)O)c3ccc(C(F)(F)F)cc3S2(=O)=O)cc1,.,0.0
O=C1C[C@H]2C=CCc3cccc(c32)CN1Cc1ccc(Cl)cc1,.,0.1
Cc1cc[n+](C2CCCCC2)cc1,.,3.7
COc1cc(CN2c3ccc(Br)cc3C(=O)CS2(=O)=O)cc(OC)c1,.,-0.3
CCOC(=O)/C=C1\CN(Cc2ccc(OC)cc2)S(=O)(=O)c2ccc(C(F)(F)F)cc21,.,0.0
COc1ccc(OC)c2c(/C=C/c3c(C)[nH]c4ccccc34)ccnc12,.,0.8
Cc1sc2ccccc2[n+]1CCc1ccccc1,.,2.6
